Vif TR-FRET: inhibitors of Vif binding to APOBEC3G peptide, primary screen, biochemical, TR-FRET, GST-Vif 1-94, biotin-A3G peptide, dose response retest (AID 1117319); one-dose inhibition, %; IC50 in µM for titrated hits; 260,000 compounds, 0.57% hits; TR-FRET GST-Vif / biotin-A3G peptide binding; higher % means a stronger effect; test concentration not given here; strong numbers were not always called active;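 active = above the screen mean plus three standard deviations and confirmed in dose response; inconclusive = results disagree or hit not tested in dose response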;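 note: Vif residues 1-94 fused to GST binding biotinylated APOBEC3G peptide 110-148; 0% = full assay without inhibitor and 100% = GST in place of GST-Vif; retest series ran down from 100 µM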
RanGTP-Impb inh: inhibitors of RanGTP-importin-beta interaction, primary screen, biochemical, FRET, CFP-Ran, YFP-importin-beta, homogeneous; AID 2216, 2009; Ran GTPase (GTP-bound) - importin-beta complex; inhibition, % (concentration not given with the values); cell-free CFP-Ran/YFP-importin-beta FRET ratio; 300,000 compounds, 1.1% hits;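 active = most replicates above 15%; inconclusive = exactly half above 15%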;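 note: 0% = DMSO wells and 100% = Ran loaded with GDP instead of GTP; wells of about 40 µL received 100 nL stock; the first replicate is given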
Calb FLC: C. albicans growth inhibition with fluconazole, primary screen, CaCi-2 strain, Alamar Blue fluorescence. growth inhibition, % (no concentration beside the values). 300,000 compounds, 0.57% hits. C. albicans CaCi-2 (fluconazole-resistant clinical isolate) + fluconazole, 48 h;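 active = most replicates above 75%; inconclusive = exactly half above 75%; inactive = most below 75%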;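 note: all wells also contain fluconazole at 8 µg/ml as a sub-toxic cotreatment; 0% = median of DMSO wells and 100% = median of geldanamycin control wells; wells of about 8 µL received 7.5 nL stock; the first replicate is given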
ALR H2O2 inh: inhibitors of human ALR sulfhydryl oxidase, primary screen, biochemical, H2O2 detection, HRP-luminol luminescence, single point. 290,000 compounds, 3.8% hits. FAD-linked sulfhydryl oxidase ALR (Homo sapiens), P55789. AID 485317, 2010. inhibition, % (no concentration beside the values). purified ALR, DTT oxidation;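 active = mean and each replicate at 75% or more; inconclusive = only one of the two met; inactive = neither met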;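 note: stock transfer was 7.5 nL into about 7.5 µL; 0% = neutral wells and 100% = wells with inactivated enzyme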
Target sequence (P55789 whole entry, looked up): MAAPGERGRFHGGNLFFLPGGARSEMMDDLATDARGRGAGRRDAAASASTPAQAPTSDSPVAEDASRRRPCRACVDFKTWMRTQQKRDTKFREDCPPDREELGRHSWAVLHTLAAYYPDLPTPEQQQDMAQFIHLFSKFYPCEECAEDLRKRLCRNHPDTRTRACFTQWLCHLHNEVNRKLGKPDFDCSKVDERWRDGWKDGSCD
Beta2AR agonist: beta2AR agonists driving receptor internalization, primary screen, cell-based, FAP fluorogen, flow cytometry | 340,000 compounds, 0.43% hits | Am2.2-beta2AR cells; reference of the scale not given here | AID 504454, 2011 | response, % (concentration not given with the values) | Beta-2 adrenergic receptor (Homo sapiens), P07550;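 active = response above a set limit, near 3 SD of response in nonfluorescent compounds, cut at about 42% in these data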;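 note: stock transfer was 100 nL into about 11 µL; a reference agonist was the positive control; negative values mostly stem from fluorescent compounds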
Target sequence (P07550 whole entry, looked up): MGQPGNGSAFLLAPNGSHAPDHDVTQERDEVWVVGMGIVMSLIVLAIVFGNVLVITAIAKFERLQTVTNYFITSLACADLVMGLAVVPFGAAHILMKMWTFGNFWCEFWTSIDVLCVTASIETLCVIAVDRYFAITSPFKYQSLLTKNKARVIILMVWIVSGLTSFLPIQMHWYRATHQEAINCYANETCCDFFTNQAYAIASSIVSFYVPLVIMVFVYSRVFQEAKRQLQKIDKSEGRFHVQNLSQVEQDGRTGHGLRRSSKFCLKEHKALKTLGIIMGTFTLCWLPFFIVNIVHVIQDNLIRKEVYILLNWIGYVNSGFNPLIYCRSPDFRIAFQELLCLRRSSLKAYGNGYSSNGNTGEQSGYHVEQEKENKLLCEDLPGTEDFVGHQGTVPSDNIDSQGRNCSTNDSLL
LANA-H2A inh: blockers of LANA interaction with H2A/H2B – biochemical, FP readout, HTS, primary screen. Protein LANA1 (Human herpesvirus 8 type P (isolate GK18)), Q9QR71. cell-free LANA-H2A/H2B peptide, fluorescence polarization. inhibition, % (no concentration beside the values). 320,000 compounds, 0.6% hits. AID 2629, 2010; in the data active = inhibition mostly above about 10%, no sharp cut-off; inactive = mostly below about 6.7%;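 note: stock transfer was 7.5 nL into about 10 µL; 0% = median of vehicle wells and 100% = median of positive control wells; one replicate is shown; the record names a cut of 25% in any replicate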
HNF4A DNA FP: change in binding of human HNF4A to DNA, primary screen, biochemical, fluorescence polarization, FITC-DNA; 1 h; activity change, % at 10 µM; 360,000 compounds, 0.3% hits; in the data active = activity change above about 30%, passing the limit was not always enough;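 note: controls were the assay level and a saturating level of protein; the project sought stronger binding though the title names inhibitors; some compounds called inactive have numbers as strong as hits; positive values seem to mean higher polarization but the record does not say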
Numbers without * were called inactive; ? = inconclusive; . = no result given.

Screens in order: Calb FLC | HNF4A DNA FP | ALR H2O2 inh | Vif TR-FRET | RanGTP-Impb inh | LANA-H2A inh | Beta2AR agonist
> O=C(O)c1cccc(S(=O)(=O)N(Cc2ccccc2)c2ccccc2Cl)c1
  5 | -1.1 | -1 | -4% | 3.7 | -13 | -2
> Cc1c(Cl)cccc1NC(=O)CNC(=O)CCS(=O)(=O)c1ccc(F)cc1
  . | 4.6 | 0 | -6% | . | 1.1 | -2
> O=C(CSc1nc(Cc2ccccc2)nc2ccccc12)Nc1ccc2c(c1)OCCO2
  7 | -0.9 | 55 | 7% | 4.2 | 0.1 | -17
> COc1ccccc1NC(=S)NCC1CCC(CNC(=S)Nc2ccccc2OC)CC1 (stereo not given)
  -7 | 1.5 | 0 | 28% | 2.7 | -2.4 | -1
> Cc1ccccc1-n1c(=O)cc(N2CCN(Cc3ccccc3)CC2)[nH]c1=O
  5 | -0.1 | -19 | 8% | 9.3 | 1.0 | 7
> CC(=O)N1CCc2c(sc(NC(=O)C3CC3)c2-c2nc3ccccc3s2)C1
  1 | 35* | -14 | -5% | 24* | 1.1 | -10
> O=C(CCn1nc(-c2ccc(Cl)cc2)ccc1=O)N1CCOCC1
  -3 | 0.1 | -2 | -2% | 6.5 | 2.0 | -13
> Cc1ccc(N=c2c([N+](=O)[O-])nn(-c3ccc4c(c3)OCCO4)n2O)cc1F
  -1 | 1.4 | -17 | 8% | . | 1.7 | -1
> Cc1cc(Oc2ccc(Br)cc2)nc(SCC(=O)c2ccccc2)n1
  -4 | -0.9 | -13 | 16% | -0.7 | -9.0 | 11
> COc1cccc(NC(=O)CN(C)C(=O)c2cccc(S(=O)(=O)N3CCN(c4ccc(F)cc4)CC3)c2)c1
  9 | -0.8 | -11 | 0% | ? | 2.1 | 5
> CCn1c(O)c(N=NC(=O)c2cccnc2)c2cc(Br)ccc21
  7 | 5.0 | -2 | -1% | -0.2 | -0.8 | 0
> O=C(NCc1cccnc1)c1cccnc1Sc1ccc(Cl)cc1
  37 | 3.2 | -1 | 4% | 3.6 | 0.9 | 0
> O=C(Nc1nccs1)c1ccc([N+](=O)[O-])cc1
  -12 | 2.3 | -10 | . | 1.4 | -0.7 | -6
> CCN(Cc1ccncc1)C(=O)CSc1ccc2ccccc2c1
  -3 | 3.0 | 38 | 1% | -2.3 | 6.2 | 3
> COc1cc(NC(=O)c2ccccc2)cc(OC)c1
  8 | 2.5 | -3 | -3% | ? | -7.1 | -7
> Cc1cc(C)nc(N2CCN(C(=O)CCC(=O)Nc3nnc(C(C)C)s3)CC2)n1
  -2 | -0.3 | 5 | 10% | 2.3 | 2.2 | -2
> O=C(NC1CCN(Cc2ccccc2)C1)c1cc(COc2ccc(F)cc2F)on1 (stereo not given)
  17 | 6.0 | -7 | 0% | . | -3.2 | -4
> COc1ccc(N2CCN(C(=O)c3ccc(NS(=O)(=O)c4ccc(F)c(F)c4)cc3)CC2)cc1
  -1 | 3.4 | 10 | 8% | -0.7 | -2.0 | 0
> O=C(Cn1nc(-c2ccccc2F)ccc1=O)NCc1ccc2c(c1)OCO2
  -22 | -2.0 | -9 | -7% | 3.0 | 0.8 | 10
> N#C/C(=C\C=C\c1ccccc1[N+](=O)[O-])C(=O)NC1CCCCC1
  40 | 6.0 | 99* | 1% | -2.1 | 4.0 | 4
> CC(C)(C)OC(=O)[C@H](Cc1ccccc1)NC(=O)c1nc[nH]c1C(=O)N[C@@H](Cc1ccccc1)C(=O)OC(C)(C)C
  10 | 6.2 | -5 | 8% | -0.2 | -3.4 | -13
> COc1ccc2c(C)cc3n[nH]c(=S)n3c2c1
  7 | -2.7 | 7 | 23% | 13 | 4.6 | 8
> COc1ccc(NC(=O)C(=O)NCCC2=CCCCC2)c(OC)c1
  -1 | -1.4 | . | . | 4.0 | -6.7 | 3
> Cc1cc(C)n(CC(=O)N2c3ccccc3Sc3ccc(C(F)(F)F)cc32)n1
  21 | -3.6 | -23 | 1% | 4.8 | 6.0 | -9
> Cn1cccc1/C=N/NC(=O)c1ccc(OC(F)(F)C(F)F)cc1
  -4 | 3.5 | 0 | 0% | -5.8 | 10 | 4
> Cc1cccc(C)c1NC(=O)COC(=O)/C=C/c1ccc(S(=O)(=O)N2CCOCC2)cc1
  . | -2.4 | . | . | . | 0.3 | 5
> CC(C)(C)n1nc2c(c1NC(=O)c1cc([N+](=O)[O-])ccc1Cl)CS(=O)(=O)C2
  15 | 0.3 | -8 | ? | 4.9 | 5.0 | 1
> CCN(CC)c1ccc(S(=O)(=O)N2CCOCC2)cc1NC(=O)CSc1nncs1
  6 | 8.4 | 0 | -4% | 1.5 | -5.1 | 1
> Cc1cccc(OCC(=O)N(Cc2ccc(C)o2)C2CCS(=O)(=O)C2)c1 (stereo not given)
  -25 | -3.2 | 2 | 4% | 5.1 | -5.9 | 21
> CCCNC(=O)c1onc(CSc2ccc(F)cc2)c1C(=O)NC(C)C
  1 | 0.6 | 4 | . | -1.0 | 0.9 | -7
> O=C(NCCN=C1NS(=O)(=O)c2ccccc21)c1ccc(S(=O)(=O)N2CCOCC2)cc1
  0 | -2.4 | -6 | 6% | -0.8 | 7.0 | -10
> Cc1ccc(NC(=O)c2sc3ncn(CC(=O)N4CCOCC4)c(=O)c3c2C)c(Br)c1
  0 | 2.7 | -7 | . | 7.6 | 1.0 | -11
> CCOC(=O)N1CCC(NS(=O)(=O)c2ccc(NC(C)=O)c(Cl)c2)CC1
  9 | -3.1 | 0 | -2% | 0.8 | 5.4 | 1
> CCCCn1cnc2c(SCc3ccccc3)nc(N)nc21
  . | -1.5 | . | -4% | . | . | -12
> COc1ccc(NC(=O)c2sc3nc(N4CCCC4)c4c(c3c2N)CC(C)(C)OC4)cc1
  0 | 1.6 | -9 | -49% | 3.9 | -4.4 | 4
> Cc1cccc(C)c1NC(=O)COC(=O)CNC(=O)C1CCCCC1
  . | -3.3 | . | -1% | . | . | 8
> COc1ccc(-c2oc3ccc(-c4cc(OC)c(OC)c(OC)c4)cc3c2-c2ccc(OC)cc2)cc1
  -1 | . | -8 | . | -4.8 | -2.6 | .
> Cc1cccc(-n2nnnc2SCC(=O)NCCN2C(=O)CSC2=O)c1
  -6 | 2.8 | 0 | -6% | 4.6 | 1.8 | 1
> Cc1ccc(CN2[C@@H](CC(C)C)COCCS2(=O)=O)cc1
  -3 | -3.9 | -23 | . | -5.6 | 1.6 | 11
> O=C1CCCN1CCCNS(=O)(=O)c1ccccc1
  . | 6.6 | 0 | -3% | . | 3.6 | -4
> CCOCCCNC(=O)c1c[nH]c2cc(C)ccc2c1=O
  5 | -2.0 | -3 | 13% | -3.3 | 4.5 | -5
> Cn1c(=O)c2c(ncn2CC(=O)OCC(=O)NCc2ccccc2Cl)n(C)c1=O
  -5 | 0.8 | 0 | . | -4.5 | -3.3 | -1
> CN(C(=O)c1ccc2c(Cl)c3c(nc2c1)CCC3)c1ccccc1
  4 | 4.2 | 1 | . | -2.5 | 3.4 | 4
> COc1ccc(-c2nnc3n2CCCCC3)cc1OC
  5 | -1.8 | . | . | -3.0 | 5.5 | 3
> O=S(=O)(c1ccc(Br)s1)N1CCN(CCc2ccccc2)CC1
  . | 1.6 | -2 | -3% | . | . | -1
> S=c1[nH]ccn1CCc1ccccc1
  -1 | 1.9 | 4 | 1% | 0.8 | -11 | -3
> CS(=O)(=O)N(CC(=O)Nc1ccc2c(c1)OCCO2)c1ccc2c(c1)OCO2
  4 | -6.7 | . | 13% | -1.0 | -4.4 | -2
> CCOC(=O)C(NC(C)=O)(Nc1cccc(F)c1)C(F)(F)F (stereo not given)
  -8 | -1.5 | 5 | -7% | 2.5 | -0.7 | -9
> CC(C)c1csc(CN2CCC(N3CCC(C(=O)NCC4CCCO4)CC3)CC2)n1 (stereo not given)
  -1 | -0.1 | -5 | 22% | 1.8 | 6.1 | -2
> CC1(C)CC2CC(C)(CN2c2ncnc3ccccc23)C1 (stereo not given)
  27 | 1.1 | -2 | 1% | -4.5 | 1.0 | 6
> Cc1nn2c3ccccc3nc2c2ccccc12
  -5 | 0.2 | -12 | -10% | 5.1 | -2.0 | -21
> CCOc1ccc(NS(=O)(=O)c2ccc(OC)c(C)c2)cc1
  -17 | -6.0 | -3 | 9% | 3.5 | -16 | 8
> O=C(CSc1nccn1-c1ncc(C(F)(F)F)cc1Cl)c1ccc(Cl)cc1
  4 | -6.1 | 9 | 31% | 6.0 | 1.4 | -10
> CN(C)S(=O)(=O)c1cccc(NC(=S)N/N=C/c2ccco2)c1
  1 | 2.7 | 17 | ? | 3.3 | 7.2 | -7
> Cc1onc(-c2ccccc2)c1C(=O)N1CCN(S(=O)(=O)c2ccccc2Br)CC1
  1 | -0.1 | -2 | . | -4.1 | -8.6 | 3
> CC(Cc1cccs1)NC(=S)Nc1ccc(Cl)cc1 (stereo not given)
  -56 | -1.6 | 4 | -3% | -0.4 | -1.0 | 0
> CCN(CC)CCC(c1ccc(OC)cc1)c1c(O)cc(OC)cc1OC (stereo not given)
  -22 | -0.1 | . | 5% | 0.1 | 0.2 | -2
> CN=C(Nc1cccc(S(=O)(=O)N2CCOCC2)c1)c1ccccc1
  . | 4.8 | -2 | . | . | -2.0 | 17
> Cc1ccc(NC2CC(=O)N(c3ccc(C)cc3)C2=O)cc1 (stereo not given)
  3 | -0.7 | -22 | 25% | 6.5 | -1.3 | -3
> O=C(NC(=S)NNC(=O)c1ccccc1O)c1ccccc1
  21 | 0.1 | 8 | . | 1.3 | -0.9 | -3

Other compounds follow.
Screens in order: Calb FLC | HNF4A DNA FP | ALR H2O2 inh | Vif TR-FRET | RanGTP-Impb inh | LANA-H2A inh | Beta2AR agonist
> CN(C)c1nc(C(F)(F)F)cc(=O)[nH]1
  -17 | -0.1 | -4 | -4% | 2.2 | 0.2 | 4
> COc1ccc(CN(C)c2ccc(S(=O)(=O)N3CCN(C)CC3)cc2[N+](=O)[O-])cc1OC
  . | -1.2 | -21 | . | . | 2.9 | -4
> CC(C)C[C@H](NC(=O)c1nc[nH]c1C(=O)NCc1ccc(CNC(=O)OC(C)(C)C)cc1)C(=O)OC(C)(C)C
  20 | -2.3 | . | . | -3.1 | -1.0 | 0
> COc1ccccc1C(=O)NC1CCN(C(=S)NCCc2ccccc2)CC1
  4 | 0.4 | -1 | -4% | 9.3 | 0.1 | 3
> COc1ccc(/C=N/Nc2nc3ccccc3c(=O)n2-c2ccccc2)cc1OC
  -1 | -1.3 | 5 | . | -1.8 | -4.3 | -11
> Cc1nc(-c2ccc(F)cc2)c(CC(=O)N(C)CC(=O)Nc2ccc(F)cc2)s1
  -2 | 2.6 | 2 | 1% | 4.7 | -0.3 | -3
> O=C(N/N=C/c1coc2ccccc2c1=O)c1ccc(Cl)cc1
  -7 | -1.6 | -4 | . | 2.4 | 3.9 | 2
> O=c1c2ccccc2nc(SCc2cc(F)ccc2F)n1C1CCCC1
  17 | 1.2 | 0 | -2% | -0.2 | -3.7 | 9
> Cc1ccc(CC(=O)Nc2ccc(S(=O)(=O)Nc3ncccn3)cc2)cc1
  -5 | -0.8 | -16 | . | -0.6 | 1.8 | -11

Screening data: PubChem BioAssay, several laboratories
